# B2AR ag: beta2AR agonists driving receptor internalization, primary screen, cell-based, FAP fluorogen, flow cytometry; Am2.2-beta2AR cells; reference of the scale not given here; 340,000 tested, 0.43% active; Beta-2 adrenergic receptor (Homo sapiens), P07550; AID 504454, 2011; response, % (concentration not given with the values);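 active = response above a set limit, near 3 SD of response in nonfluorescent compounds, cut at about 42% in these data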;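 also: stock transfer was 100 nL into about 11 µL; a reference agonist was the positive control; negative values mostly stem from fluorescent compounds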
# Target sequence (P07550 whole entry, looked up): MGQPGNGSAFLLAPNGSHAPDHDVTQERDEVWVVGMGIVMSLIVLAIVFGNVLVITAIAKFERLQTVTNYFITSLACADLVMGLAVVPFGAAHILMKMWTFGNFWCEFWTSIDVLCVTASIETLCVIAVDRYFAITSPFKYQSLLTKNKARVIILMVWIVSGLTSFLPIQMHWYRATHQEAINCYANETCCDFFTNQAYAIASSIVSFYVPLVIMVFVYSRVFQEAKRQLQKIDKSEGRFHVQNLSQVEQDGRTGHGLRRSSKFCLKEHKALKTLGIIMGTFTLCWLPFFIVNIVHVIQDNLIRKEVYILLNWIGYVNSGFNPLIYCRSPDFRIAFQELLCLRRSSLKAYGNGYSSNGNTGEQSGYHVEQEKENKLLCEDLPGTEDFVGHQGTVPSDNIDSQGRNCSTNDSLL
# FGF22 binding: binders of human FGF22 protein, primary screen, FGF22 synaptogenesis inhibitor project, biophysical, thermal shift, single point. Fibroblast growth factor 22 (Homo sapiens), Q9HCT0. recombinant FGF22 thermal shift, SYPRO orange fluorescence; percent of sucrose octasulfate shift, DMSO zero. calls only at 9.99 µM. 340,000 tested, 1.5% active;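 active = melting point raised past a set limit in the mean and every replicate; inconclusive = no clear call; three in four hits are not shown here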
# UCH37 DUB inh: inhibitors of human UCH37 deubiquitinase, primary screen, biochemical, Ub-AMC cleavage, fluorescence; inhibition, % (test concentration not listed); Ubiquitin carboxyl-terminal hydrolase isozyme L5 (Homo sapiens), Q9Y5K5; purified proteasome/UCH37; 330,000 tested, 0.33% active;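 active = mean of two replicates above 20%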;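 also: 0% = compound-free wells with enzyme and 100% = wells lacking proteasome; stock transfer was 100 nL into about 20 µL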
#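 system = Proteasome-associated human UCH37 deubiquitinase | amount = 0.15 nM proteasome as dispensed | medium = pH 7.4 Tris-HCl (50 mM) with ovalbumin, ATP-MgCl2, DTT | incubation = 30 min preincubation with enzyme, 25 min cleavage at room temperature | detection = AMC fluorescence 355/460 nm | read-out basis = percent inhibition | controls = no-proteasome and no-compound wells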
# E coli growth: E. coli growth inhibition, primary screen, OD600; Escherichia coli growth, 23 h; hits give low values; OD600 absorbance (concentration not given with the values); 330,000 tested, 0.21% active;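 active = OD600 absorbance below the run mean of sample wells minus 3.6 SD, in any replicate, cut at about 0.56 in these data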;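 also: stock transfer was 300 nL into about 60 µL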
# HNF4A DNA FP: change in binding of human HNF4A to DNA, primary screen, biochemical, fluorescence polarization, FITC-DNA; Hepatocyte nuclear factor 4-alpha (Homo sapiens), P41235; 1 h; activity change, % at 10 µM; 360,000 tested, 0.3% active; in the data active = activity change above about 30%, passing the limit was not always enough;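 also: controls were the assay level and a saturating level of protein; the project sought stronger binding though the title names inhibitors; some compounds called inactive have numbers as strong as hits; positive values seem to mean higher polarization but the record does not say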
# Target sequence (P41235 whole entry, looked up): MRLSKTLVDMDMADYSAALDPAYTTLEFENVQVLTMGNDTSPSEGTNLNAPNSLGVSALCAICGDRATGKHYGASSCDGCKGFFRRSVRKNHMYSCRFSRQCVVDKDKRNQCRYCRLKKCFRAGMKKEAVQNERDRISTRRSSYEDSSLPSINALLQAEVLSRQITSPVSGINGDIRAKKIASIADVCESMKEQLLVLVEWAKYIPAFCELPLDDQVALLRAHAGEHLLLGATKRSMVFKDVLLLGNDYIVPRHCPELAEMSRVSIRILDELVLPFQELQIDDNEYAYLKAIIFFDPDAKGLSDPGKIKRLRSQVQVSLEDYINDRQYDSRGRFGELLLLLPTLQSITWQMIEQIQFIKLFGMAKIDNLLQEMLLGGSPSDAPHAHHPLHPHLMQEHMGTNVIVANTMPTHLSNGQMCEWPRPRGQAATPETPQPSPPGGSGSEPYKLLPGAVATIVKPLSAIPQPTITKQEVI
# ALR H2O2 inh: inhibitors of human ALR sulfhydryl oxidase, primary screen, biochemical, H2O2 detection, HRP-luminol luminescence, single point | FAD-linked sulfhydryl oxidase ALR (Homo sapiens), P55789 | purified ALR, DTT oxidation | inhibition, % (concentration not given with the values) | 290,000 tested, 3.8% active;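 active = mean and each replicate at 75% or more; inconclusive = only one of the two met; inactive = neither met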;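 also: stock transfer was 7.5 nL into about 7.5 µL; 0% = neutral wells and 100% = wells with inactivated enzyme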
# Target sequence (P55789 whole entry, looked up): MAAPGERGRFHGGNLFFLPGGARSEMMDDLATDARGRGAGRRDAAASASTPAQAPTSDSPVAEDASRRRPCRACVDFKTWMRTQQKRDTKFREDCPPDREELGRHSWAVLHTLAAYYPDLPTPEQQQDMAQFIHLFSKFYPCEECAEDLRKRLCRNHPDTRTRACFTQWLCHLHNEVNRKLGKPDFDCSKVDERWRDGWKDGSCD
# LANA-H2A inh: blockers of LANA interaction with H2A/H2B – biochemical, FP readout, HTS, primary screen | Protein LANA1 (Human herpesvirus 8 type P (isolate GK18)), Q9QR71 | cell-free LANA-H2A/H2B peptide, fluorescence polarization | inhibition, % (concentration not given with the values) | 320,000 tested, 0.6% active | AID 2629, 2010; in the data active = inhibition mostly above about 10%, no sharp cut-off; inactive = mostly below about 6.7%;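 also: stock transfer was 7.5 nL into about 10 µL; 0% = median of vehicle wells and 100% = median of positive control wells; one replicate is shown; the record names a cut of 25% in any replicate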
# * = called active by the depositor; i = inactive; ? = inconclusive; / = not tested or not shown. These rows are one share of the data; rates above refer to the full screens.
SMILES,B2AR ag,FGF22 binding,UCH37 DUB inh,E coli growth,HNF4A DNA FP,ALR H2O2 inh,LANA-H2A inh
CCOc1ccc(NC(=S)N(Cc2ccc(Cl)cc2)Cc2ccco2)cc1,-1.8,/,5.8,0.712,-0.7,-3.1,6.1
Cc1ccc(N(C)C(=O)n2cnc3ccccc32)cc1,3.5,i,0.1,0.677,-0.1,1.2,6.0
O=C(CSc1nnc(-c2cccnc2)o1)Oc1ccccc1,1.9,/,3.6,0.71,-1.0,14.6,-0.3
CC1=CCC(C(=O)O)C(C(=O)Nc2nc3ccc(S(C)(=O)=O)cc3s2)C1 (centres undefined),7.0,/,5.1,0.721,2.2,-2.1,0.9
CCc1ccc(NC(=O)CC2C(=O)N(c3cccc(OC)c3)C(=O)N2CCOC)cc1 (centres undefined),2.3,i,4.0,0.715,0.5,-3.4,3.9
CCOC(=O)N1CCC(N2Cc3cccc(C(=O)O)c3C2=O)CC1,2.4,i,2.1,0.664,1.0,/,-6.5
O=C(CSc1nc2ccsc2c(=O)n1NC(=O)c1ccccc1)Nc1nccs1,5.8,/,6.0,0.71,2.5,/,-5.0
CC1=C(C(=O)OCC2CCCO2)C(c2ccsc2)C2=C(CCCC2=O)N1 (centres undefined),-14.2,/,-113.4,0.644,-4.5,-4.1,2.8
COCCn1c(SCC(=O)Nc2cc(C)on2)nnc1-c1ccccc1,2.0,i,1.3,0.683,0.8,-1.8,0.7
C=CCSc1nccc(-c2nn(-c3ccc(C)cc3)ccc2=O)n1,-1.3,/,-27.2,0.748,-2.2,?,6.5
Cc1ccc(NC(=O)CSc2nc3ccccc3c(=O)n2Cc2cccs2)cc1,-8.7,i,4.9,0.694,-1.0,-36.7,-3.7
CCC(C)(C)NC(=O)C(c1sccc1C)N(Cc1ccco1)C(=O)c1csnn1 (centres undefined),-5.5,i,5.1,0.696,0.0,0.6,0.9
CCCn1c(SCC(=O)Nc2nc(-c3ccc(OC)cc3)cs2)nc2c1c(=O)n(C)c(=O)n2C,15.2,/,2.4,0.658,-4.8,-10.2,-6.1
CCN1C(=O)[C@@H]2[C@H](C1=O)[C@@H]1C[C@H]3C(=O)N(CC)C(=O)[C@H]3[C@@H]3C1=C(C(=O)N1C(=O)OC(=NCC4CC4)[C@]31C)[C@@H]2C,6.1,i,0.8,/,1.2,/,8.9
O=C(c1cc2cc(F)ccc2[nH]1)N1CCN(Cc2ccc3c(c2)OCO3)CC1,12.0,i,-0.9,0.629,-5.0,-2.0,0.3
Brc1cccc(-c2nnc(-c3ccccc3)o2)c1,-4.6,/,0.9,0.73,1.6,3.5,-0.3
CC1Sc2ccc(C(=O)N3CCCC(C(F)(F)F)C3)cc2NC1=O (centres undefined),0.8,i,2.9,0.69,1.3,0.8,5.0
Cc1ccc(S(=O)(=O)Cn2nnnc2C(c2ccccc2)N2CCN(c3ccccc3)CC2)cc1 (centres undefined),13.0,/,3.2,0.757,0.6,9.5,0.4
CCC(C)NC(=O)CSc1c2c(nc3ccccc13)CCCC2 (centres undefined),0.2,i,5.5,0.633,5.0,37.4,0.3
COc1cc(N)c(Cl)cc1C(=O)OCC(=O)c1cccs1,-18.9,i,0.8,0.638,-1.9,5.5,-6.0
CCN(Cc1nc2cc(Cl)ccc2c(=O)[nH]1)C(=O)c1cc2c(s1)CCCCC2,-0.7,i,1.8,0.732,1.1,/,/
CCc1nnc(NC(=O)CCC(=O)NC2CCCC2)s1,0.5,i,0.9,0.705,-1.9,1.4,-3.1
CCC/S(CC1CC1(Cl)Cl)=N\S(=O)(=O)c1ccc(C)cc1 (centres undefined),5.0,/,0.6,0.703,0.5,-3.5,0.0
FC(F)(F)c1cc(Oc2ccc(Cl)cc2)ncc1-c1nnc(-c2ccc(Cl)cc2)o1,-0.2,i,-13.6,0.688,5.6,/,-2.0
CC(C)c1ccccc1NC(=O)CCc1nc2ccccc2s1,-44.0,/,1.8,0.646,-1.6,-9.1,-6.4

# Further records follow.
SMILES,B2AR ag,FGF22 binding,UCH37 DUB inh,E coli growth,HNF4A DNA FP,ALR H2O2 inh,LANA-H2A inh
CCOC(=O)c1c(S(=O)(=O)N2CCC(C)CC2)c(C)n(C)c1C,-6.4,i,4.0,0.708,-0.7,1.5,-0.2
Cc1ccc(Cn2c(-n3nc(C)cc3C)nc3c2c(=O)[nH]c(=O)n3C)cc1,-6.7,/,1.7,0.743,-1.5,3.1,1.3
NS(=O)(=O)c1ccc(-c2ccc(/C=C3\SC(=S)N(C4CCS(=O)(=O)C4)C3=O)o2)cc1 (centres undefined),-62.2,i,/,/,129.7,12.1,-3.2
C=CCn1c(SC2CCOC2=O)nc2sc(CC)cc2c1=O (centres undefined),-1.5,/,4.4,0.73,2.6,-5.8,1.3
COc1cc(OC)cc(-c2c(-c3cccs3)c3cc(-c4cccc5[nH]ccc45)ccc3n2C)c1,0.5,i,1.4,0.816,10.2,-5.3,-1.1
Cc1cc2c(c(=O)n1Cc1ccccn1)C(c1ccc3c(c1)OCO3)C(C#N)=C(N)O2 (centres undefined),-5.2,/,3.0,0.726,1.4,-4.6,0.7
COc1cc(OC)c(N(C)S(=O)(=O)c2cccc(C(=O)NC3=NCCS3)c2)cc1Cl,-5.7,i,4.5,0.694,-0.7,-8.6,-0.3
CCOC(=O)c1cc(-c2ccc(C)cc2)n(CCC(=O)NC(C)CC)c1C (centres undefined),-7.4,/,-0.7,0.765,-1.9,-14.9,3.3
Cc1nn(CCS(=O)(=O)c2ccc(Cl)cc2)c(C)c1Br,-2.4,i,2.3,0.695,-1.4,-3.1,-5.4
Cc1cnnn1-c1ccc(C(=O)CCl)cc1,12.5,/,7.0,0.508*,3.8,35.1,-3.1
CC(OC(=O)c1ccc(O)cc1)C(=O)Nc1ccc(Oc2ccccc2)cc1 (centres undefined),-4.6,i,4.3,0.713,1.1,/,1.0
Cc1cccc(OCCSc2ncnc3nc[nH]c23)c1,-9.5,/,1.3,0.671,-0.3,30.1,2.6
CCCC(C)NC(=O)CSCc1ccc(OC)cc1 (centres undefined),-2.5,i,1.0,0.701,5.6,-25.7,-2.3
COc1ccc(N2C(=O)C3C4C=CC(C4)C3C2=O)c(OC)c1 (centres undefined),-0.4,/,3.0,0.702,4.2,-41.1,-0.3
CC(C)(C)NS(=O)(=O)c1ccc(-c2csnn2)s1,-8.4,/,1.3,0.717,-3.0,1.9,2.0
CCc1cc2c(=O)c(-c3nc4ccccc4n3C)c(C)oc2c(CN2CCN(CCO)CC2)c1O,0.1,i,-90.8,0.669,-1.2,-3.1,2.7
O=C(NC(=S)N1CCc2ccccc21)C1CCC1,-4.5,i,-4.5,0.733,1.3,4.9,-1.2
COc1ccc(NC(=O)C2CCN(C(=O)c3ccccc3)CC2)cc1OC,0.4,i,-1.1,0.677,0.7,-31.3,2.8
CN(Cc1ccccc1Cl)C(=O)c1cc2ccccc2o1,13.7,i,3.1,0.682,2.9,/,4.9
CC(=O)N1CN(C2CCS(=O)(=O)C2)Cc2c1sc1c2CCCC1 (centres undefined),-7.8,/,5.9,0.758,-0.7,-8.0,-2.1
COc1cccc(CC2(CO)CCN(C(=O)NC3CCCCC3)CC2)c1,3.4,i,4.1,0.678,3.8,-10.1,-0.9
CN(C)CCCC1(O)c2ccccc2C=Cc2ccccc21,-1.4,/,5.2,0.71,0.7,/,-5.8
N#C/C(=C/c1ccc(F)cc1)S(=O)(=O)c1ccccc1,-4.3,i,2.7,0.691,5.0,-18.6,0.9
Cc1n[nH]c(=O)c2ccccc12,-3.9,i,4.4,0.715,-0.1,/,-6.2
O=C(NCC1CCCCC1)C1(CC2CC(c3cccc(Br)c3)=NO2)CCNCC1 (centres undefined),21.4,i,0.2,0.637,-2.9,-10.1,0.4

# (cont.)
SMILES,B2AR ag,FGF22 binding,UCH37 DUB inh,E coli growth,HNF4A DNA FP,ALR H2O2 inh,LANA-H2A inh
Cc1ccccc1-n1c(=O)c2ccccc2n(CC(=O)NCc2ccco2)c1=O,5.0,i,2.5,0.672,-1.7,0.2,1.8
CN(CC(=O)Nc1ccc(Cl)cc1)C(=O)CCC1CCCC1,-3.0,i,-0.7,0.712,0.6,-2.3,-1.3
CCc1c(C)nc2ncnn2c1N1CCC(C(=O)Nc2ccccc2)CC1,-10.4,/,3.8,0.675,-1.1,-0.3,3.0
Cc1ccc(O)c(NC(=O)C2CC(c3ccc(F)cc3)=NO2)c1 (centres undefined),-7.2,/,4.0,0.688,-5.5,0.8,-1.5
CC(=O)c1cccc(NC(=O)c2c(C)nn(-c3ccccc3)c2Cl)c1,0.2,i,0.6,0.686,-2.4,-9.1,-3.1
COc1cc([N+](=O)[O-])cc(/C=N/NC(=O)C(C)Nc2ccccc2C)c1O (centres undefined),4.8,i,/,/,-1.3,/,4.9
COc1ccc(-n2c(C)cc(C(=O)CCl)c2C)cc1,30.9,i,8.4,0.646,5.3,37.6,-0.8
CCn1ccnc1[C@@H]1C[C@H]2CN(Cc3ccccc3OC)C(=O)[C@]23CCCN13,-12.5,i,1.6,0.697,6.0,-3.0,-5.0
COc1ccc(NC(=O)Cn2c(=O)oc3ccccc32)cc1,-5.3,i,1.5,0.711,1.0,-16.7,-5.3
CC(C)Cc1cc(C(=O)O)c2ccccc2n1,-6.8,/,2.8,0.717,-1.4,12.2,1.6
COc1ccc(S(=O)(=O)N(C)C[C@H]2Oc3ccc(NC(=O)Nc4ccc5c(c4)OCO5)cc3C(=O)N([C@H](C)CO)C[C@@H]2C)cc1,7.0,i,4.2,/,-4.2,-9.7,0.2
O=C(NCc1ccccn1)c1cc2ccccn2n1,5.3,i,1.1,0.711,2.9,-5.2,8.6
NS(=O)(=O)c1cccc(NS(=O)(=O)c2ccc(/C=C/C(=O)O)cc2)c1,-4.0,i,4.3,0.689,-2.7,-4.1,0.3
O=C(CCNS(=O)(=O)c1ccccc1F)NCc1ccc2c(c1)OCO2,-3.2,/,4.0,0.728,0.4,0.4,-4.6
O=C(NCC(=O)N1CCOCC1)c1ccc(Br)o1,3.9,i,4.3,0.622,-1.3,-4.1,-4.5
CCCNS(=O)(=O)c1ccc(OCC(=O)Nc2ccc3c(c2)OCCO3)c(C)c1,8.1,i,0.2,0.674,-0.8,-12.4,-5.8
CC(C)(C)NC(=S)Nc1cccc(C(F)(F)F)c1,8.8,i,-0.7,0.651,-0.7,-19.0,-3.0
C=CCn1c(-c2cccnc2)n[nH]c1=S,5.4,i,5.8,0.71,-0.3,33.0,3.0
CC(C)(C)OC(=O)C[C@H]1C/C=C\C[C@@H](CC(=O)N(CCO)Cc2ccccc2)C(=O)N[C@H](C(C)(C)C)COC1=O,-20.4,i,-3.6,/,4.3,-2.4,1.7
CCc1nc2sc3c(c2c(=O)n1CCO)CCC3,-5.9,i,5.5,0.719,4.7,-1.2,6.5
Cc1ccc(C)c(Cn2c(C(=O)OC(C)C)cc3c2ccn3C)c1,9.3,/,1.2,0.716,2.6,-11.0,-2.2
COc1ccc(OCCCC(=O)NCCc2ccccc2)cc1,14.3,/,0.8,0.698,3.2,-5.0,2.0
COc1cccc(NC(=O)Cc2c(O)c3ccccc3[nH]c2=O)c1,2.4,/,-1.6,0.684,-0.5,11.4,-1.3
CCc1ccc(/C=C(/C#N)C(N)=S)s1,-8.4,i,3.8,0.697,-1.8,20.7,1.1
Cc1ccc(S(=O)(=O)N2CCN=C2SCc2c(F)cccc2Cl)cc1,13.0,i,2.5,0.733,3.1,-5.5,-2.4
